Bioassay records deposited in PubChem BioAssay by several laboratories.
Vif A3G = inhibitors of Vif binding to APOBEC3G peptide, primary screen, biochemical, TR-FRET, GST-Vif 1-94, biotin-A3G peptide, dose response retest (AID 1117319); TR-FRET GST-Vif / biotin-A3G peptide binding; higher % means a stronger effect; test concentration not given here; strong numbers were not always called active; Virion infectivity factor (Human immunodeficiency virus type 1 group M subtype B (isolate …; 0.57% of 260,000 active; one-dose inhibition, %; IC50 in µM for titrated hits;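 active = above the screen mean plus three standard deviations and confirmed in dose response; inconclusive = results disagree or hit not tested in dose response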;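 note: Vif residues 1-94 fused to GST binding biotinylated APOBEC3G peptide 110-148; 0% = full assay without inhibitor and 100% = GST in place of GST-Vif; retest series ran down from 100 µM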
Ecoli growth = E. coli growth inhibition, primary screen, OD600; Escherichia coli growth, 23 h; stronger effect = lower value; OD600 absorbance (concentration not given with the values); 0.21% of 330,000 active; AID 1053175, 2014;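 active = OD600 absorbance below the run mean of sample wells minus 3.6 SD, in any replicate, cut at about 0.56 in these data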;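 note: stock transfer was 300 nL into about 60 µL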
rRNA inh HTS = reduced GFP signal of wild-type E. coli, primary screen, bacterial rRNA inhibitor project, GFP/RFP fluorescence, OD600, single point | E. coli WT GFP vs humanized-ribosome RFP mutants, 24 h; stronger effect = lower value; DMSO median 0, no signal -100 | GFP signal change (wild-type ribosome), % (test concentration not listed) | 1.6% of 350,000 active | AID 720706, 2013;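 active = significant combined selectivity score with lowered wild-type GFP, culture density cut under 30%, mutant RFP and density less affected; inactive = any of these conditions unmet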; note: one replicate is shown; some compounds called inactive have numbers as strong as hits
FGF22 binding = binders of human FGF22 protein, primary screen, FGF22 synaptogenesis inhibitor project, biophysical, thermal shift, single point | Fibroblast growth factor 22 (Homo sapiens), Q9HCT0 | recombinant FGF22 thermal shift, SYPRO orange fluorescence; percent of sucrose octasulfate shift, DMSO zero | calls only at 9.99 µM | 1.5% of 340,000 active | AID 651658, 2012;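 active = melting point raised past a set limit in the mean and every replicate; inconclusive = no clear call; three in four hits are not shown here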
Target sequence (Q9HCT0 whole entry, looked up): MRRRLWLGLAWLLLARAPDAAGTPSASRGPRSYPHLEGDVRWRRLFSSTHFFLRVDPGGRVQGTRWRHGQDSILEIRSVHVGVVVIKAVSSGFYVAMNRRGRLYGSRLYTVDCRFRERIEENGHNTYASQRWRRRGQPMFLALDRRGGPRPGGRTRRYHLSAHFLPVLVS
ALR inh = inhibitors of human ALR sulfhydryl oxidase, primary screen, biochemical, H2O2 detection, HRP-luminol luminescence, single point | purified ALR, DTT oxidation | inhibition, % (no concentration beside the values) | AID 485317, 2010 | 3.8% of 290,000 active;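 active = mean and each replicate at 75% or more; inconclusive = only one of the two met; inactive = neither met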;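 note: stock transfer was 7.5 nL into about 7.5 µL; 0% = neutral wells and 100% = wells with inactivated enzyme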
Target sequence (P55789 whole entry, looked up): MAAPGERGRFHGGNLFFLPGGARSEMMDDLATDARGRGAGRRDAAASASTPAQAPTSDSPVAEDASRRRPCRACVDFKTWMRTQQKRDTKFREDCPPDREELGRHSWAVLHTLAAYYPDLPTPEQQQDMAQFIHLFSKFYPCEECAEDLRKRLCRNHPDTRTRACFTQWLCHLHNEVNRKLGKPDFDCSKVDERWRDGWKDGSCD
MLL AF4-AF9 inh = inhibitors of AF4 peptide binding to AF9, primary screen, biochemical, AlphaScreen, biotin-AF4 peptide, FLAG-AF9, single point. 0.47% of 350,000 active. inhibition, % at 10 µM. AID 651704, 2012. Protein AF-9 (Homo sapiens), P42568;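 active = every replicate reaching a set inhibition limit, whatever the replicate mean, cut at about 25% in these data; inconclusive = mean inhibition reaches that limit but some replicates miss it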;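 note: 0% = plate neutral control median and 100% = total signal loss; the record names both 10 and 1 µM as test concentration; the first replicate is given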
HNF4A DNA FP = change in binding of human HNF4A to DNA, primary screen, biochemical, fluorescence polarization, FITC-DNA; Hepatocyte nuclear factor 4-alpha (Homo sapiens), P41235; 1 h; activity change, % at 10 µM; 0.3% of 360,000 active; AID 1224865, 2016; in the data active = activity change above about 30%, passing the limit was not always enough;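 note: controls were the assay level and a saturating level of protein; the project sought stronger binding though the title names inhibitors; some compounds called inactive have numbers as strong as hits; positive values seem to mean higher polarization but the record does not say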
Target sequence (P41235 whole entry, looked up): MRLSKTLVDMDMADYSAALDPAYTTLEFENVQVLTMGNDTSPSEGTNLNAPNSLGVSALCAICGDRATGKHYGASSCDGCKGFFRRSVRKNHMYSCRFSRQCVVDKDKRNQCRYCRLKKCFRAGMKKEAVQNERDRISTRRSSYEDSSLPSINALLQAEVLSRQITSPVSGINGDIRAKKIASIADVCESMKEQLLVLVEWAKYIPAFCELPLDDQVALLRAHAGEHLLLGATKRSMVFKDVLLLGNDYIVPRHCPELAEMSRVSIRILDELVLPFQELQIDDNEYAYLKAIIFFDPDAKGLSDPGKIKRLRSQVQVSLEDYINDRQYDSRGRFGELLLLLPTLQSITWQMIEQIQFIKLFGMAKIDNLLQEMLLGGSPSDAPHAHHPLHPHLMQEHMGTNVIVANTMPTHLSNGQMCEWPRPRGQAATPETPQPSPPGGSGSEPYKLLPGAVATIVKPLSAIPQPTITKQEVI
rRNA inh HTS OD600 = further read-out of rRNA inh HTS, marked with its call; OD600 change, %; measured here: OD600 growth;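 optical density of the mix in the first replicate; 0 = DMSO median and -100 = no signal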
rRNA inh HTS RFP = second read-out of rRNA inh HTS, no call of its own (marks repeat the call); RFP signal change, %; measured here: RFP humanized mutant strains;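 first replicate; 0 = DMSO median and -100 = no signal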
* = called active by the depositor; i = inactive; ? = inconclusive; . = no result given; & = joins results of further samples. This is a subset; rates above refer to the full screens.

SMILES	Vif A3G	Ecoli growth	rRNA inh HTS	rRNA inh HTS OD600	rRNA inh HTS RFP	FGF22 binding	ALR inh	MLL AF4-AF9 inh	HNF4A DNA FP
COc1ccc(CN2C[C@@H](O)COC[C@H]3O[C@@H](CC(=O)N4CCc5ccccc5C4)CC[C@@H]32)cc1	.	.	-6.3	-10.1	0.9	i	.	3.5	.
O=C(CSc1n[nH]c(=O)n1C1CC1)c1c[nH]c2ccccc12	-3.4%	0.661	6.1	5.7	1.3	i	-3.1	-1.7	1.9
CN1CCc2c(sc(NC(=O)c3ccc(S(=O)(=O)N4CCOCC4)cc3)c2C(N)=O)C1	18.7%	0.724	.	.	.	.	0.7	.	48.0*
CN(C1CCCCC1)S(=O)(=O)c1ccc(NC(=O)C2CCCCC2C(=O)O)cc1 (stereo not drawn)	-1.4%	0.75	.	.	.	.	4.8	.	-0.6
CCN(CC(=O)Nc1ccc(NC(C)=O)cc1)C(=O)C12CC3CC(CC(Cl)(C3)C1)C2	6.6%	0.733	5.2	3.2	2.4	i	-6.2	-2.6	0.7
O=C(CCCN1C(=O)C(c2ccccc2)Oc2cccnc21)Nc1ccccc1Cl (stereo not drawn)	.	0.673	8.0	6.7	0.3	i	-0.4	-0.7	-0.9
CN1C(=O)c2cc(NC(=O)c3ccc(F)cc3)ccc2OC[C@H]2O[C@@H](CC(=O)N3CCOCC3)CC[C@@H]21	.	.	2.2	8.4	-3.6	i	.	-0.8	.
O=C(Nc1cccc2[nH]c([C@H]3C[C@H](O)[C@@H](CO)O3)nc12)NC(c1ccccc1)c1ccccc1	.	.	0.0	13.2	-0.8	i	.	-2.6	-1.2
CC(Sc1nc2c(c(=O)[nH]1)CCCC2)C(=O)Nc1ccccc1C#N (stereo not drawn)	.	0.692	5.9	4.8	-0.9	i	-6.9	-7.8	0.8
Cc1csc(SCC(=O)c2c(N)n(CC(C)C)c(=O)n(C)c2=O)n1	?	0.734	.	.	.	.	0.4	.	5.8
C=CCN1C(=O)C(=O)N(CC(=O)c2ccc3c(c2)CCCC3)C1=O	.	0.676	6.6	-0.5	-5.2	i	.	-1.8	4.2
CNc1nc(C)c(C(=O)OCc2ccccc2)s1	-8.0%	0.693	.	.	.	.	.	.	-6.5
CCC(=O)Nc1ccc(C(=O)NNC(=O)Cc2ccccc2)cc1	30.1%	0.693	-11.9	2.7	5.8	i	-6.8	-9.8	-1.3
O=C1NC(=O)/C(=C\c2ccc(Cl)cc2Cl)N1	2.6%	0.645	-19.5*	-14.5*	-4.6*	i	.	-2.5	0.8
CCOC(=O)CN1CC23C=CC(O2)C(C(=O)Nc2ccc4c(c2)OCO4)C3C1=O (stereo not drawn)	8.5%	0.733	5.1	6.2	3.5	i	-7.3	1.5	-2.8
COC1(OC)C(=N/O)/C(=N\O)CCC1O (stereo not drawn)	0.5%	.	4.4	1.9	-0.2	i	-1.5	3.9	-1.7
O=S(=O)(N/N=C\C=C\c1ccccc1)c1ccccc1	.	.	-1.9	2.2	-5.9	i	13.3	-22.0	0.6
C[C@@H]1CN([C@@H](C)CO)C(=O)Cc2cc(NC(=O)Cc3ccccc3)ccc2O[C@@H]1CN(C)Cc1ccc(Cl)c(Cl)c1	.	.	-1.9	-7.5	-0.1	i	.	0.7	.
O=C(CCOc1cccc(Br)c1)Nc1ccc(F)c(S(=O)(=O)N2CCOCC2)c1	-1.3%	0.688	-0.3	-1.6	-0.3	i	.	-13.2	-1.6
C[C@H](CO)N1C[C@H](C)[C@@H](CN(C)S(=O)(=O)c2cn(C)cn2)Oc2ccc(NC(=O)CCN3CCOCC3)cc2C1=O	.	.	1.6	11.0	1.0	i	.	-1.1	.
O=C(NN=C1CCCCC1)NC1CCCCC1	.	0.7	.	.	.	i	40.1	3.2	3.3
Cc1ccc(NC(=O)/C(=C\c2cccc([N+](=O)[O-])c2)NC(=O)c2cccs2)cc1	-5.7%	0.658	.	.	.	.	.	.	1.8
O=C(CSc1nc(-c2ccccc2)cc(=O)[nH]1)N1CCOCC1	-0.9%	0.72	.	.	.	.	-1.2	.	2.2
COC(=O)CCC(=O)OC1(C)C(=O)C=C2C=C(C3CC3)N(C3CCCC3)C=C2C1=O (stereo not drawn)	.	0.694	5.0	1.5	3.1	i	.	-1.6	-3.7
O=C(O)c1cc([N+](=O)[O-])cc2c1nnn2O	-1.8%	0.704	5.8	15.8	23.1	i	27.7	5.7	-0.7
Cc1ccc(S(=O)(=O)NC2CCCCCC2)cc1C(N)=O	.	0.729	1.2	1.6	0.7	i	-4.9	-0.7	-2.2
COc1ccc(CCNC(=O)C(=O)c2c[nH]c3ccccc23)cc1OC	.	0.702	-34.6	-51.1	3.0	i	4.3	8.3	-0.1
COc1c2c(nc3ccccc13)OC(C(C)(O)COC(C)=O)C2 (stereo not drawn)	2.7%	0.653	.	.	.	.	19.7	.	1.5
COc1ccccc1NC(=S)NC1CCC(CC2CCC(NC(=S)Nc3ccccc3OC)CC2)CC1 (stereo not drawn)	.	0.681	4.2	8.5	-2.6	i	1.9	2.5	-1.5
CCC(CC)NC(=O)c1cc2c(C)nn(Cc3ccccc3Cl)c2s1	-3.9%	0.703	.	.	.	.	-0.8	.	-2.9
Cc1onc(-c2c(F)cccc2Cl)c1-c1ncc(-c2ccc(Cl)cc2)o1	.	.	2.5	8.5	0.7	i	.	0.9	.
O=C1OC(Nc2nc(-c3ccc(F)cc3)cs2)c2ccccc21 (stereo not drawn)	-1.5%	0.677	6.2	-0.7	-1.0	i	-3.0	-6.0	4.3
COc1cccc(N2CCN(C(=O)c3ccc(CS(=O)Cc4ccc(C)cc4)o3)CC2)c1 (stereo not drawn)	.	0.683	-6.1	-23.3	-3.8	i	79.5*	4.3	0.6
Cc1nc2n(COCCO)cnn2c(=O)c1Br	6.8%	0.692	.	.	.	.	-3.6	.	-2.2
CN(Cc1nc2ccccc2c(=O)[nH]1)C(=O)c1cccc(S(=O)(=O)N2CCCCCC2)c1	.	0.651	.	.	.	i	-3.2	-4.9	2.0
CC=Cc1ccc2n(c1=O)C[C@@H]1[C@@H](CO)[C@H](C(=O)N3CCc4ccccc4C3)N(C(=O)CC)[C@H]21 (mixture of isomers)	.	.	-2.7	4.4	0.2	i	.	-0.2	.
CC(C)(Cc1nc2ccccc2[nH]1)c1nc2ccccc2[nH]1	5.9%	.	2.8	-0.3	-0.3	i	.	-1.7	5.5
CS(=O)(=O)N(CCc1ccccc1)CC(=O)N1CCCCC1	0.6%	0.677	.	.	.	.	43.6	.	2.2
CCOC(=O)N1CCN(C(=O)c2ccc(NS(=O)(=O)c3ccc4[nH]c(=O)[nH]c4c3)cc2)CC1	-1.0%	0.644	3.1	5.6	-1.4	i	.	1.5	2.2
C[C@H](CO)N1C[C@H](C)[C@H](CN(C)C(=O)NC2CCCC2)Oc2ncc(-c3ccc(F)cc3)cc2C1=O	.	.	-6.3	2.3	-1.0	i	.	-4.5&-8.1	.
CC1CC(=O)c2cnc(Nc3cccc(C(F)(F)F)c3)nc2C1 (stereo not drawn)	-1.8%	0.743	.	.	.	.	-1.3	.	3.3
O=C(Cc1ccc(S(=O)(=O)N2CCCCC2)s1)Nc1ccc(F)c(F)c1	5.8%	0.643	-29.6	-67.4	-3.3	i	-5.4	0.1	-0.5
CC/C(=C1/C(=O)CC(C)(C)C(C(=O)OC)C1=O)N1CCCC1 (stereo not drawn)	-3.0%	0.735	.	.	.	.	1.0	-0.7	-1.2
CCN1CCCC1Cn1cnc2c([nH]c3cccc(Cl)c32)c1=O (stereo not drawn)	32.2%	0.733	.	.	.	.	.	.	2.2
Cc1c(C(=O)NCC2CCCO2)cccc1[N+](=O)[O-] (stereo not drawn)	.	0.675	.	.	.	.	-11.2	.	1.0

Arranged by value in rRNA inh HTS (high to low): some entries from above
smiles,rRNA inh HTS
CCOC(=O)N1CCN(C(=O)c2ccc(NS(=O)(=O)c3ccc4[nH]c(=O)[nH]c4c3)cc2)CC1,3.1
CC=Cc1ccc2n(c1=O)C[C@@H]1[C@@H](CO)[C@H](C(=O)N3CCc4ccccc4C3)N(C(=O)CC)[C@H]21 (mixture of isomers),-2.7
O=C(Cc1ccc(S(=O)(=O)N2CCCCC2)s1)Nc1ccc(F)c(F)c1,-29.6

In another format: entries from further up.
Results follow in this order: Vif A3G	Ecoli growth	rRNA inh HTS	rRNA inh HTS OD600	rRNA inh HTS RFP	FGF22 binding	ALR inh	MLL AF4-AF9 inh	HNF4A DNA FP
> COc1ccccc1NC(=S)NC1CCC(CC2CCC(NC(=S)Nc3ccccc3OC)CC2)CC1 (stereo not drawn)
→ .	0.681	4.2	8.5	-2.6	i	1.9	2.5	-1.5
> CCC(CC)NC(=O)c1cc2c(C)nn(Cc3ccccc3Cl)c2s1
→ -3.9%	0.703	.	.	.	.	-0.8	.	-2.9

(further entries)
SMILES	Vif A3G	Ecoli growth	rRNA inh HTS	rRNA inh HTS OD600	rRNA inh HTS RFP	FGF22 binding	ALR inh	MLL AF4-AF9 inh	HNF4A DNA FP
O=C(C[C@@H]1CC[C@@H](NS(=O)(=O)c2ccc(F)cc2)[C@H](CO)O1)NCCc1ccncc1	.	.	3.6	0.4	2.1	i	.	-2.1	.
Cc1cccc(NC2SC(=O)N(CC(=O)O)C2=O)c1 (stereo not drawn)	6.2%	0.67	.	.	.	.	4.2	.	3.9
Cn1nnc2cc(NC(=O)Nc3ccccc3F)ccc21	-5.1%	.	-4.0	10.1	-2.1	i	.	-0.8	6.8
CCCCCCCCN1C(=O)[C@H](CC(=O)N2CCOCC2)C[C@@]2(C(=O)OC)CC(C)(C)CC=C12	.	.	-9.3	-39.0	2.5	i	.	-0.7	2.1
CCC(C(=O)NC1CCN(C)CC1)c1ccccc1 (stereo not drawn)	.	0.719	12.9	16.2	2.4	i	-20.1	-6.5	2.5

By substructure: the entries above containing a nitro group on carbon
SMILES	Vif A3G	Ecoli growth	rRNA inh HTS	rRNA inh HTS OD600	rRNA inh HTS RFP	FGF22 binding	ALR inh	MLL AF4-AF9 inh	HNF4A DNA FP
Cc1ccc(NC(=O)/C(=C\c2cccc([N+](=O)[O-])c2)NC(=O)c2cccs2)cc1	-5.7%	0.658	.	.	.	.	.	.	1.8
O=C(O)c1cc([N+](=O)[O-])cc2c1nnn2O	-1.8%	0.704	5.8	15.8	23.1	i	27.7	5.7	-0.7
Cc1c(C(=O)NCC2CCCO2)cccc1[N+](=O)[O-] (stereo not drawn)	.	0.675	.	.	.	.	-11.2	.	1.0
